Bioassay records from PubChem BioAssay.
StopGo reporter = High Throughput Screening for Foot and Mouth Disease Virus Antivirals. actives 1.2% (n = 410,000). human cells with a luciferase reporter of 2A StopGo recoding; control for the full effect not named in the record. Potency, µM (doses to about 57.9 µM), without a hit: at the highest dose signal change, negative = less light; active = well fitted falling curve with a large enough effect; inconclusive = small, poorly fitted or top-dose-only effect; inactive = no such curve, though single readings can be large or run the other way; tested in HEK293T cells; note: % is set by controls: 0 for no effect and ±100 for the full control effect; nearly all actives have a fitted effect of over 45% in size; luciferase light after 4 h
RE007 growth inh = qHTS Assay for Inhibitors of the HIV-1 protein Vpr | Potency, µM (top dose mostly 92.2 µM), for inactives: at the top dose activity change, negative = less growth | S. pombe RE007 Vpr strain, BacTiter-Glo ATP luminescence, 24 h; control for the full effect not named in the record | actives 0.21% (n = 360,000); active = well fitted falling curve with a large enough effect; inconclusive = small, poorly fitted or top-dose-only effect; inactive = no such curve, though single readings can be large or run the other way;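 note: % is set by controls: 0 for no effect and ±100 for the full control effect; nearly all actives have a fitted effect of over 50% in size; the assay follows cell death caused by Vpr and the record does not say whether a fall means rescue or toxicity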
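Fission yeast strain RE007, carrying one chromosomally integrated HIV-1 vpr copy, was seeded at OD 0.01 in PMG+AL medium with 23 nL pinned compound. After 24 h at 30 °C and 99% humidity, viability was read by BacTiter-Glo luminescence.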
NS1 function inh = qHTS Assay for Inhibitors of Influenza NS1 Protein Function; AID 2326, 2010; actives 0.4% (n = 270,000); Potency, µM (top dose mostly 46.1 µM), without a hit: at the highest dose activity, positive = more growth; S. cerevisiae slowed by influenza A NS1, growth recovery by OD600; active means well fitted rising curve with a large enough effect; inconclusive means small, poorly fitted or top-dose-only effect; inactive means no such curve, though single readings can be large or run the other way; note: nearly all actives have a fitted effect of over 50% in size
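OD600 was taken as the measure of yeast growth restored by compound in an NS1-expressing S. cerevisiae strain. Cells had been washed out of glucose medium and diluted 1:100 into galactose -URA medium, pH 6.0.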
Cruzain inh Det = qHTS Assay for Promiscuous and Specific Inhibitors of Cruzain (with detergent); purified cruzain, Z-FR-AMC fluorescence, 0.01% Triton; Cruzipain (Trypanosoma cruzi), P25779; actives 0.43% (n = 200,000); AID 1478, 2009; Potency, µM, inactives show max response, negative = inhibition, hits mostly inhibitors;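 note: plate controls were neutral wells for no effect and buffer without enzyme for full effect; nearly all actives have a fitted effect of over 40% in size; top concentration of the series not given in the record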
Target sequence (P25779 123-467 limits assumed): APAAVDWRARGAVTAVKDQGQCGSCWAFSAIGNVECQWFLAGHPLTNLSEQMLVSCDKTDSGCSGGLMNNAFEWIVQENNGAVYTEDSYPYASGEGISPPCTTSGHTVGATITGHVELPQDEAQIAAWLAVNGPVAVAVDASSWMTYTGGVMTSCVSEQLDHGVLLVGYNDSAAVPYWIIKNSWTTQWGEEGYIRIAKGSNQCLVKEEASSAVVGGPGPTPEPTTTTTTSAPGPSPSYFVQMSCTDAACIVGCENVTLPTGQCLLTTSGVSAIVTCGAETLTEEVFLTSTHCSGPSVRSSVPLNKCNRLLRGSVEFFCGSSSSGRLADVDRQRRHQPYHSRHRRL
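Read-out: AMC fluorescence (360 nm excitation, 450 nm emission), four reads over 2 min, first-to-third difference used. Conditions: cruzain 1.5 nM, Z-FR-AMC 2 uM, pH 5.5 acetate, 5 mM DTT, 0.01% Triton X-100.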
Lassa entry inh = qHTS for Inhibitors of binding or entry into cells for Lassa Virus | Lassa virus pseudotype entry inhibition, cell reporter; control for the full effect not named in the record | Potency, µM (highest dose often 37.9 µM), without a hit: at the highest dose activity change, negative = inhibition, actives largely listed as inhibitors | actives 1.2% (n = 300,000); active means well fitted inhibition curve with a large enough effect; inconclusive means small, poorly fitted or top-dose-only effect, or effect the other way; inactive means flat fitted curve, though single readings scatter; tested in HEK293 cells; note: % is set by controls: 0 for no effect and ±100 for the full control effect; nearly all actives have a fitted effect of over 50% in size; luciferase read-out
SARS PLP yeast = qHTS of Yeast-based Assay for SARS-CoV PLP | Potency, µM (doses to about 32.9 µM), inactives show at the top dose activity, positive = growth rescue | S. cerevisiae expressing SARS-CoV PLpro, growth rescue; control for the full effect not named in the record | actives 0.19% (n = 330,000) | AID 485353, 2010; active means well fitted rising curve with a large enough effect; inconclusive means small, poorly fitted or top-dose-only effect; inactive means no such curve, though single readings can be large or run the other way; note: 0% is about no effect; nearly all actives have a fitted effect of over 55% in size; growth read by luminescence after 48 h
Cruzain inh noDet = qHTS Assay for Promiscuous and Specific Inhibitors of Cruzain (without detergent). Cruzipain (Trypanosoma cruzi), P25779. Potency, µM, for the others: max response, negative = inhibition, actives largely listed as inhibitors. actives 2.3% (n = 200,000). purified cruzain, Z-FR-AMC fluorescence, no detergent;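 note: plate controls were enzyme without inhibitor for no effect and buffer without enzyme for full effect; nearly all actives have a fitted effect of over 40% in size; top concentration of the series not given in the record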
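Purified cruzain at 1.5 nM, pre-incubated 15 min with compound at room temperature in 100 mM sodium acetate pH 5.5, 5 mM DTT, 0.00005% Triton X-100. Reaction started with 2 uM Z-FR-AMC; AMC fluorescence increase over 60 s gives rate.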
Marburg entry inh = qHTS for inhibitors of binding or entry into cells for Marburg Virus; Marburg virus pseudotyped entry inhibition, cell reporter; control for the full effect not named in the record; about a third of the inactives were read at about 46 µM; Potency, µM (highest dose often 37.8 µM), for inactives: at the highest dose activity change, negative = inhibition, most hits filed as inhibitors; actives 1.8% (n = 300,000); AID 540276, 2011; active = well fitted inhibition curve with a large enough effect; inconclusive = small, poorly fitted or top-dose-only effect, or effect the other way; inactive = flat fitted curve, though single readings scatter; tested in HEK293 cells; about a fifth of its hits are not listed in these tables; note: % is set by controls: 0 for no effect and ±100 for the full control effect; luciferase read-out
Numbers without * were called inactive; ? = inconclusive; . = not tested or not shown; & = joins results of further samples; [ ] = another dose, or the depositor's remark. Unless noted, calls come from the whole dose curve; as a rule, active = well fitted curve in the direction sought with a large enough effect; inconclusive = small, poorly fitted or top-dose-only effect, or another doubt; inactive = no such curve, though single readings can be large; an effect the other way counts as inactive or inconclusive. Potency is the fitted concentration of half-maximal effect.

compound	StopGo reporter	RE007 growth inh	NS1 function inh	Cruzain inh Det	Lassa entry inh	SARS PLP yeast	Cruzain inh noDet	Marburg entry inh
CCc1ccccc1NC(=O)CSc1ncccc1C(=O)O	6%	.	.	0.0%	24%[46.1 µM]	.	-4%	.
CN1CCC(N(C)S(=O)(=O)c2ccc(Cl)cc2)CC1	3%	-3%	13%	.	.	2%	.	.
Cc1nc(/C=C/c2ccccc2)[nH]c(=O)c1-c1ccccc1	52%[activator]	-2%	4%	-2.9%	?	13%	-7%	?
CCOc1ccc(NC(=O)CC(=O)Nc2ccc(OCC)cc2)cc1	17%	11%	0%	.	.	-2%	.	.
CCCOc1ccc(/C(O)=C2\C(=O)C(=O)N(c3ccccn3)C2c2ccccc2F)cc1C (stereo unspecified)	0%	3%	?	.	23%[46.1 µM]	0%	.	?
CC(=O)N1CCOc2ccc(S(=O)(=O)N3CCN(c4cc(C)ccc4C)CC3)cc21	?	-7%	22%	.	.	-20%	.	.
COc1cccc(C(=O)N/N=C(\C)CC(=O)Nc2ccc(N(C)C)cc2)c1	43%[activator]	-8%	-48%	.	-13%	1%	.	12%
Cc1ccc(CNc2nc3ccccc3n3nnnc23)cc1	15%	-1%	6%	2.3%	14%	-1%	32µM*	?
CCOc1ccc(/C=C/C(=O)OC(C)C(=O)NC2CCCCC2C)cc1OC (stereo unspecified)	-2%	2%	.	.	0%	1%	.	-22%
Cc1ccc(N(C(=O)CC2NC(=O)NC2=O)C2(C(=O)NC3CCCC3)CCCCC2)cc1 (stereo unspecified)	-14%	30%	0%	4.7%	4%	-1%	4%	-2%
COc1ccc(CNS(=O)(=O)c2c(C)[nH]c(C)c2C(=O)N2CCCC2)cc1	-13%	8%	-3%	.	.	27%	.	.
Cc1ccc(-c2nc(N/N=C/c3cccnc3)c3ccccc3n2)cc1	.	?	18%	-14%	?	-34%	?	?
CC1=C(c2ccc(C(C)C)cc2)S(=O)(=O)NC1=NCc1ccc(OC(C)C)cc1	0%	.	.	-3.1%	0%[46.1 µM]	.	2%	0%[46.1 µM]
COc1ccc(-n2nc3ccc(NS(C)(=O)=O)cc3n2)cc1Cl	16%	-6%	2%	-7.8%	-16%	1%	-19%	?
O=C(CCNS(=O)(=O)c1cccs1)N1CCN(c2ccc(F)cc2)CC1	-2%	-20%	2%	.	-18%	-5%	.	-5%[46.1 µM]
Cc1cccc(NC(=S)N(CCCN2CCOCC2)Cc2cn(C)c3ccccc23)c1	-8%	1%	5%	0.1%	?	-24%	4%	?
Cc1ccc(S(=O)(=O)Oc2cccc(N3C(=O)C4CC=CCC4C3=O)c2)cc1 (stereo unspecified)	-19%	23%	4%	2.7%	?	1%	17%	0%
CCOc1ccc2nc(SC3CC(=O)N(c4ccc(C)cc4)C3=O)sc2c1 (stereo unspecified)	16%	-20%	8%	0.8%	26%	-16%	-5%	-1%
COc1ccc(-n2c(=O)c3c4c(sc3n(CC(=O)NCc3ccco3)c2=O)CCC4)c(OC)c1	3%	0%	-18%	-1.1%	-3%	25%	12%	-8%
Cc1ccc(NS(=O)(=O)c2ccc(NC(=O)c3cccs3)cc2)cc1	12%	2%	5%	-8.8%	10%	0%	-8%	?
CCOC(=O)c1c(C)c(C(=O)Nc2cc(OC)ccc2OC)c(C)n1CC	4%	15%	-37%	-6.2%	?	-5%	1%	-27%
O=C1CSC(=S)N1/N=C/C=C/c1ccccc1	12%	-13%	21%	?	4%	14%	32µM*	-2%
CC(C)N1CCN(S(=O)(=O)c2ccc3ccccc3c2)CC1	3%	-5%	3%	.	.	0%	.	.
Cc1[nH]n(-c2ccccc2)c(=O)c1N=Nc1ccc(C(=O)O)cc1	7%	5%	2%	.	2%[46.1 µM]	1%	.	29%[46.1 µM]
CCCCCCCOc1ccc(C(=O)Nc2cccnc2)cc1	-27%	10%	4%	.	?	-7%	.	?
CSc1ncccc1C(=O)Nc1nc2ccc(F)cc2s1	-10%	-12%	.	.	-2%	0%	.	-15%[46.1 µM]
CCCCc1nc2cc(C(=O)N3CCNC(=O)C3CC(=O)OC)ccc2o1 (stereo unspecified)	1%	1%	6%	.	3%	0%	.	13%
O=C1CC(c2ccco2)Sc2ccccc2N1 (stereo unspecified)	-5%	10%	-1%	.	2%[46.1 µM]	0%	.	19%[46.1 µM]
Cc1cc(C)c2nc(NNC(=O)c3ccc(S(=O)(=O)N4CCCCC4)cc3)sc2c1	-6%	4%	17%	-1.9%	?	?	-6%	?
CCOC(=O)c1c(C)n(C)c2cc(CN(C)C)c(O)c(S(=O)(=O)c3ccccc3)c12	8%	1%	1%	.	0%	-1%	.	8%[46.1 µM]
CC1(C)OC2OC(C(=O)N/N=C/c3cc(Br)ccc3O)C3OC(C)(C)OC3C2O1 (stereo unspecified)	?	.	-7%	-9.3%	-27%	11%	-8%	?
COc1ccc(/C=N/NC(=O)CCSc2nc3ccccc3s2)cc1	-29%	-4%	1%	-7.8%	?	-21%	?	?
COC(CNC(=O)c1cccc(-n2c(=S)[nH]c3cc(Cl)ccc3c2=O)c1)OC	6%	-4%	4%	.	.	-2%	.	-3%[46.1 µM]
Cc1cccc(OCC(=O)NCc2ccc3c(c2)CCN3C(=O)c2ccc(Cl)cc2)c1	0%	.	.	-0.9%	-12%[46.1 µM]	.	4%	.
NNCc1ccccc1	2%&42%	-4%	.	-0.5%	.	.	-4%	.
CCOC(=O)CSc1n[nH]c(NC(C)=O)n1	-6%	2%	4%	.	.	-1%	.	.
CC(/C=N\NC(=O)CN1CCN(Cc2ccccc2)CC1)=C\c1ccco1	-2%	7%	8%	-8.6%	-7%	5%	2%	-1%
COC(=O)c1c(-c2cccs2)csc1NC(=O)COc1ccc(C)cc1	-6%	.	.	0.2%	24%[46.1 µM]	.	-17%	3%[46.1 µM]
COc1ccc(N=Cc2cc3c(cc2O)OC(N)=C(C#N)C3c2ccccc2)cc1 (stereo unspecified)	?	-9%	21%	-4.1%	?	?	?	?
O=C1CC(c2ccccc2)Cc2[nH]c(=O)c(-c3nc(-c4ccc(Cl)cc4)cs3)cc21 (stereo unspecified)	-10%	.	.	-1.1%	-8%[46.1 µM]	.	-17%	?
O=C(CCC(=O)Nc1nnc(C2CCCCC2)s1)NCc1ccccc1	3%	13%	6%	.	.	0%	.	.
CC1CCCCN1S(=O)(=O)c1csc(C(N)=O)c1 (stereo unspecified)	-10%	17%	16%	.	.	-4%	.	.
COc1ccc(OCCn2cc(/C(N)=N/O)c3ccccc32)cc1	.	-7%	-54%	-1.0%	0%	2%	-8%	-12%
O=C(Nc1cccc(-c2cn3cccnc3n2)c1)c1ccco1	-4%	0%	-10%	-7.7%	1%	-3%	-11%	-1%
Cc1ccc(NC(=O)Cc2nnc(SCC(=O)Nc3ccc(N4CCOCC4)cc3)n2C)cc1	16%	8%	-2%	.	-8%	1%	.	-17%
O=C1CN(S(=O)(=O)c2ccccc2)CCN1	17%	5%	.	.	-2%	-4%	.	4%
CN(C)C(=O)Oc1ccc(Cl)c2ccccc12	6%	8%	-33%	-3.2%	-16%	-15%	-2%	-26%[46.1 µM]
Cc1cc(C)c(C#N)c(SCc2ccccc2[N+](=O)[O-])n1	0%	.	-6%	-7.7%	0%	11%	1%	-7%
COCc1ccc(C(=O)NC(C)c2cnn(-c3ccccc3C)c2C)o1 (stereo unspecified)	-17%	-11%	1%	.	-11%[46.1 µM]	0%	.	2%[46.1 µM]
CCN(CC(=O)Nc1cccc(OC)c1)CC(=O)Nc1ccc(C)cc1Cl	-1%	20%	.	.	13%	-3%	.	-28%[46.1 µM]
O=C(NCCN1CCOCC1)c1sc2cc(Cl)ccc2c1Cl	-1%	-9%	-12%	.	?	-3%	.	3%[46.1 µM]
COCc1cc(=O)[nH]c(/N=C(\N)Nc2ccc(C)cc2C)n1	-18%	-5%	-2%	.	?	0%	.	2%[46.1 µM]
CC(=O)Nc1ccc(-c2cc(C(=O)O)c3ccccc3n2)cc1	-26%	0%	-1%	.	.	2%	.	.
Cc1nn(CC(=O)NCCN2CCCCCC2)c(=O)c2nn(-c3ccccc3)c(C)c12	-21%	-8%	12%	.	.	0%	.	.
O=C(OCC(=O)c1ccc[nH]1)c1ccc(C(F)(F)F)cc1	-1%	-20%	.	.	1%	2%	.	15%
COc1cc(C(=O)OCc2cc(=O)oc3c(C)c(C)ccc23)ccc1OC(F)F	-22%	-12%	1%	.	?	-1%	.	0%[46.1 µM]
Cc1ccccc1Cn1cc(S(=O)(=O)c2ccc(Cl)cc2)c(=O)c2cc3c(cc21)OCO3	-19%	.	.	-1.7%	10%[46.1 µM]	.	2%	18%[46.1 µM]
Cc1cc2cc3c(N)[nH]nc3nc2cc1C	72%[activator]	0%	1%	0.2%	16%	-4%	-3%	9%
O=C(Nc1cccnc1)c1ccc(CN2CCc3ccccc3C2)cc1	?	14%	-10%	1.0%	-30%	-5%	4%	-6%
CCCc1nnc(NC(=O)CCC(=O)N2CCC(Cc3ccccc3)CC2)s1	-3%	-1%	4%	.	.	?	.	.

Next section
compound	StopGo reporter	RE007 growth inh	NS1 function inh	Cruzain inh Det	Lassa entry inh	SARS PLP yeast	Cruzain inh noDet	Marburg entry inh
CCNC(=S)NNC(=O)Cn1nc(C)cc1C	0%	-16%	9%	4.4%	-13%	-1%	-1%	-8%
Cc1nn(-c2ccccc2)c(C)c1/C=N/NC(=O)CSc1nnc(SCc2cccc3ccccc23)s1	-18%	21%	24%	-3.7%	?	6%	4µM*	?
CC(C)Oc1cccc(C(=O)NC(=S)NCc2cccnc2)c1	-43%	-3%	16%	-6.1%	?	13%	-10%	-2%
O=C(Nc1cccnc1Cl)c1cccnc1Cl	-18%	-1%	0%	4.8%	?	5%	-2%	8%
